E coli growth – E. coli growth inhibition, primary screen, OD600. Escherichia coli growth, 23 h; hits give low values. OD600 absorbance (no concentration beside the values). hit rate 0.21% among 330,000;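 active = OD600 absorbance below the run mean of sample wells minus 3.6 SD, in any replicate, cut at about 0.56 in these data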;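 note: stock transfer was 300 nL into about 60 µL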
LANA-H2B inh – blockers of LANA interaction with H2A/H2B – biochemical, FP readout, HTS, primary screen; Protein LANA1 (Human herpesvirus 8 type P (isolate GK18)), Q9QR71; cell-free LANA-H2A/H2B peptide, fluorescence polarization; inhibition, % (no concentration beside the values); hit rate 0.6% among 320,000; in the data active = inhibition mostly above about 10%, no sharp cut-off; inactive = mostly below about 6.7%;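 note: stock transfer was 7.5 nL into about 10 µL; 0% = median of vehicle wells and 100% = median of positive control wells; one replicate is shown; the record names a cut of 25% in any replicate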
ALR H2O2 inh – inhibitors of human ALR sulfhydryl oxidase, primary screen, biochemical, H2O2 detection, HRP-luminol luminescence, single point; FAD-linked sulfhydryl oxidase ALR (Homo sapiens), P55789; hit rate 3.8% among 290,000; purified ALR, DTT oxidation; inhibition, % (no concentration beside the values);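 active = mean and each replicate at 75% or more; inconclusive = only one of the two met; inactive = neither met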;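 note: stock transfer was 7.5 nL into about 7.5 µL; 0% = neutral wells and 100% = wells with inactivated enzyme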
Target sequence (P55789 whole entry, looked up): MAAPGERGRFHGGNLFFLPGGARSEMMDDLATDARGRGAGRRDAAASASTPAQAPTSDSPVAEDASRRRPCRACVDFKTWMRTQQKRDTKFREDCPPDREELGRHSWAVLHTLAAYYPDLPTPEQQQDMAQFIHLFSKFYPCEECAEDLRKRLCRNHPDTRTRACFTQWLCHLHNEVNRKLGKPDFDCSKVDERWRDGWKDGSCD
UCH37 DUB inh – inhibitors of human UCH37 deubiquitinase, primary screen, biochemical, Ub-AMC cleavage, fluorescence; Ubiquitin carboxyl-terminal hydrolase isozyme L5 (Homo sapiens), Q9Y5K5; purified proteasome/UCH37; inhibition, % (test concentration not listed); hit rate 0.33% among 330,000; AID 588478, 2011;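 active = mean of two replicates above 20%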;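 note: 0% = compound-free wells with enzyme and 100% = wells lacking proteasome; stock transfer was 100 nL into about 20 µL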
Target sequence (Q9Y5K5 whole entry, looked up): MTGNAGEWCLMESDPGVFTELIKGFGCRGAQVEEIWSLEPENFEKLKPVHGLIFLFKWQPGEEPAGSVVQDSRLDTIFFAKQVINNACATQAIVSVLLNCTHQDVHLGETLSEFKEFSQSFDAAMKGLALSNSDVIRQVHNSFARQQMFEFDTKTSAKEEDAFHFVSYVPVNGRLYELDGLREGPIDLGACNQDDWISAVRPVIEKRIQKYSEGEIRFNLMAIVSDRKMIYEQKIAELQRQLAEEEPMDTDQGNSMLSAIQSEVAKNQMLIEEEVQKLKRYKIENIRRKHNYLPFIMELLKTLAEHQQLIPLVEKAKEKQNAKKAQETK
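Material: human UCH37 enzyme supplied as purified proteasome complex. Measure: % inhibition of Ub-AMC cleavage fluorescence. Medium: pH 7.4 Tris-HCl (50 mM) with ovalbumin, ATP-MgCl2, DTT. Times: 30 min preincubation with enzyme, 25 min cleavage at room temperature. Detection: AMC fluorescence intensity at 355/460 nm.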
FGF22 binding – binders of human FGF22 protein, primary screen, FGF22 synaptogenesis inhibitor project, biophysical, thermal shift, single point; AID 651658, 2012; hit rate 1.5% among 340,000; recombinant FGF22 thermal shift, SYPRO orange fluorescence; percent of sucrose octasulfate shift, DMSO zero; Fibroblast growth factor 22 (Homo sapiens), Q9HCT0; calls only at 9.99 µM;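 active = melting point raised past a set limit in the mean and every replicate; inconclusive = no clear call; three in four hits are not shown here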
B2AR ag – beta2AR agonists driving receptor internalization, primary screen, cell-based, FAP fluorogen, flow cytometry. Beta-2 adrenergic receptor (Homo sapiens), P07550. Am2.2-beta2AR cells; reference of the scale not given here. response, % (test concentration not listed). hit rate 0.43% among 340,000;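 active = response above a set limit, near 3 SD of response in nonfluorescent compounds, cut at about 42% in these data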;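 note: stock transfer was 100 nL into about 11 µL; a reference agonist was the positive control; negative values mostly stem from fluorescent compounds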
HNF4A DNA FP – change in binding of human HNF4A to DNA, primary screen, biochemical, fluorescence polarization, FITC-DNA | Hepatocyte nuclear factor 4-alpha (Homo sapiens), P41235 | activity change, % at 10 µM | 1 h | hit rate 0.3% among 360,000; in the data active = activity change above about 30%, passing the limit was not always enough;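 note: controls were the assay level and a saturating level of protein; the project sought stronger binding though the title names inhibitors; some compounds called inactive have numbers as strong as hits; positive values seem to mean higher polarization but the record does not say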
Target sequence (P41235 whole entry, looked up): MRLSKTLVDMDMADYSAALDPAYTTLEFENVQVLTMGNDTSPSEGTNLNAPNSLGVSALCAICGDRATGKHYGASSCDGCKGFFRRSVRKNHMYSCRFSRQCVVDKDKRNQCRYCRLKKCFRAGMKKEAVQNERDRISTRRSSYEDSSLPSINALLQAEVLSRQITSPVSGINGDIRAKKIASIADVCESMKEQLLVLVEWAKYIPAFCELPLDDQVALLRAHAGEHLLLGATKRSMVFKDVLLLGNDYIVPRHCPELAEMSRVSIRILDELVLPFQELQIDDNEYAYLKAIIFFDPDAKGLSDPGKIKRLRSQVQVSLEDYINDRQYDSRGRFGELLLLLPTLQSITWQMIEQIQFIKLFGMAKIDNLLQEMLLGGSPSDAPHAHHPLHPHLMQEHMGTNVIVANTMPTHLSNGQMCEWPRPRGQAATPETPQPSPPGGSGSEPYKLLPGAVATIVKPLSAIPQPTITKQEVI
* marks the source's active call; other numbers are inactive results; i = inactive; ? = inconclusive; nt = no result given. The list is partial (hit frequency here may not be typical).

The line under a structure holds: E coli growth	LANA-H2B inh	ALR H2O2 inh	UCH37 DUB inh	FGF22 binding	B2AR ag	HNF4A DNA FP
> CC1CCCN(C(=O)c2cc(S(=O)(=O)N3CCCCC3)c[nH]2)C1 (centres undefined)
 : 0.68	-1.0	4	5.4	i	-6	-5.5
> CC(C)CCNC(=O)C1C2C=CC3(CN(Cc4ccccc4Cl)C(=O)C13)O2 (centres undefined)
 : 0.75	5.9	18	-0.4	i	3	-0.5
> COCCCNC(=S)NNC(=S)Nc1ccc(F)cc1F
 : 0.72	-3.4	10	5.1	nt	0	0.6
> CCN(CC)c1nc(-c2ccccc2)nc2ccccc12
 : 0.57	-6.2	-1	-1.3	nt	8	-1.6
> CCCCNS(=O)(=O)c1ccc(OC)c(C)c1
 : 0.77	1.7	nt	1.4	nt	3	-0.8
> CC[C@H](C)C(C(=O)N1CCN(C(=O)OC(C)(C)C)CC1)n1cc(C(CO)NC(=O)OC(C)(C)C)nn1 (some centres undefined)
 : nt	-6.1	-30	4.4	i	-5	-0.4
> Cc1ccc(SCCN2CCC(C)CCC2=O)cc1 (centres undefined)
 : 0.64	0.3	-2	4.0	i	-3	-0.8
> CN1CCC(=NNC(=O)CSc2ccc(Cl)cc2)CC1
 : 0.7	-0.7	4	2.1	nt	3	1.4
> CCC(=NCc1ccccc1)c1c(C(F)(F)F)[nH]n(-c2nc3ccccc3s2)c1=O
 : 0.74	1.3	52	2.7	nt	-6	-0.3
> Cc1cccc(N(CC(=O)NC2CC3CCC2C3)S(=O)(=O)c2ccccc2)c1 (centres undefined)
 : 0.75	-4.4	34	2.4	i	-4	-0.5
> Cc1nn(C)c(NC(=O)c2ccccc2Cl)c1Cl
 : 0.68	-0.8	-2	2.9	i	2	-1.1
> Cc1cnc(C(=O)Nc2ccc(-n3cnnn3)cc2)cn1
 : 0.7	2.1	-1	0.5	nt	0	-5.0
> COc1ccc(-c2cc(-c3cccnc3)c(C#N)c(N)n2)cc1
 : 0.63	0.5	nt	-399	i	-2	4.1
> CC(O)C(=O)NCCOCCOCCNC(=O)C(C)O (centres undefined)
 : 0.75	-3.5	-5	0.0	nt	2	-2.5
> c1ccc(Cn2nnc3c(N4CCOCC4)ncnc32)cc1
 : 0.77	1.8	21	3.4	i	-13	1.4
> CCS(=O)(=O)c1nc(S(=O)(=O)c2ccc(C)cc2)c(N2CCN(CCO)CC2)s1
 : 0.66	5.5	-4	4.7	i	2	-3.5
> COc1ccccc1NC(=O)Cc1csc(NC(=S)Nc2ccccc2)n1
 : 0.7	2.5	nt	0.8	nt	-6	0.7
> Nc1nc(-c2cccc(Br)c2)cs1
 : 0.62	1.5	?	4.6	nt	-2	-0.2
> O=C(Nc1ccccc1F)Nc1cccnc1Cl
 : 0.63	2.1	0	1.6	i	-5	-0.4
> FC(F)(F)c1cccc(-c2nnc3ccc(C(F)(F)F)cn23)c1
 : 0.7	-1.6	6	0.6	nt	-4	-1.6
> O=C(Cc1ccccc1)NNC(=O)c1cnccn1
 : 0.69	3.1	-15	3.6	i	2	-1.6
> O=C(/C=C/c1ccco1)NC1=NCCS1
 : 0.65	-8.6	-7	5.7	nt	0	-2.5
> Nc1c(C(=O)CSc2nnc(N3CCOCC3)n2-c2cccc(F)c2)c(=O)[nH]c(=O)n1C1CC1
 : 0.68	1.4	nt	1.9	i	-2	-0.8
> N#CC1=C(N)Oc2cc(O)ccc2C1c1cccnc1 (centres undefined)
 : 0.68	2.5	22	7.4	i	-3	9.4
> COc1cccc(C(=O)Nc2nnc(S(=O)(=O)N(C)c3ccccc3)s2)c1
 : 0.7	-8.1	2	0.7	i	7	1.9
> CCOc1ccc(C(=O)CN2C(=O)NC3(CCCCCC3)C2=O)cc1
 : 0.64	-4.7	7	0.6	i	6	6.3
> COc1ccccc1N(C)S(=O)(=O)c1ccc(C(=O)NC(C)c2ccccc2)cc1 (centres undefined)
 : 0.71	5.9	-4	4.6	i	-4	-3.8
> CCOCc1c(C(=O)NC2CCCCCC2)oc2ccccc12
 : 0.69	16	3	1.3	nt	-6	6.0
> C[C@@H](CSc1ccccc1)CN1CC[C@H](NC(=O)OCc2ccccc2)CCC1=O
 : nt	6.3	nt	0.5	i	5	3.3
> COC(=O)c1cc(C(=O)OC)cc(N2C(=O)CC(NNC(=O)c3ccccc3Cl)C2=O)c1 (centres undefined)
 : 0.71	2.2	4	0.1	nt	-5	0.6
> Cc1ccc(-c2cnc(NCc3cc4c(cc3[N+](=O)[O-])OCO4)n2C)cc1C
 : 0.56	-3.6	40	8.6	nt	-1	-1.8
> Cc1cc(-c2csc(NC(=O)c3cc4ccccc4o3)n2)c(C)n1C
 : 0.74	1.3	6	1.2	nt	8	6.0
> CN(C(=O)COC(=O)C1CCN(S(=O)(=O)c2cccs2)CC1)C1CCS(=O)(=O)C1 (centres undefined)
 : 0.67	1.4	-1	3.2	nt	-3	1.2
> Cc1csc(SCC(=O)c2c(N)n(C)c(=O)n(C)c2=O)n1
 : 0.72	5.1	-9	1.1	nt	-17	2.2
> O=c1cc(CO)oc(C(Nc2cccc(C(F)(F)F)c2)c2ccccn2)c1O (centres undefined)
 : 0.66	-1.8	52	0.5	i	1	0.7
> CC(=O)NC(CC(=O)N1CCN(C(C)=O)CC1)c1ccccc1 (centres undefined)
 : 0.72	-11	-2	-0.6	i	6	-3.7
> O=[N+]([O-])c1ccc(-c2n(-c3ccccn3)c3ccccc3[n+]2-c2ccccn2)cc1
 : 0.67	7.5	-8	5.4	i	2	-1.0
> COc1ccccc1Oc1ccc(NC(=O)c2ccccc2C)cc1
 : 0.72	4.1	-13	5.7	i	4	-1.8
> CC1(C)CC2(CCO1)OC(=O)CC2C(=O)NCCc1ccccc1 (centres undefined)
 : 0.71	0.3	-6	5.0	nt	2	-2.0
> Cc1ccc(S(=O)(=O)N2CCC(C(=O)Nc3ccc(S(=O)(=O)N4CCOCC4)cc3)CC2)cc1
 : 0.65	nt	nt	3.7	i	-10	-2.4
> Cc1cc(C(=O)Nn2cnnc2)ccc1[N+](=O)[O-]
 : 0.67	2.6	26	6.5	nt	-1	-1.8
> CC(=O)C1=C(C)NC2=C(C(=O)c3ccccc32)C1c1ccccc1 (centres undefined)
 : 0.65	-0.1	-14	6.8	i	-7	-0.1
> Cn1cc(P(=S)(N2CCOCC2)N2CCOCC2)cc1P(=S)(N1CCOCC1)N1CCOCC1
 : 0.67	0.0	-14	1.9	i	5	-3.1
> CCC1(c2ccc(F)cc2)NC(=O)N(CC(=O)N2CCN(S(=O)(=O)c3ccc(C)cc3)CC2)C1=O (centres undefined)
 : 0.68	-4.7	-4	-1.0	i	-4	0.8
> COC(CN1C(=O)C(=O)/C(=C(/O)c2ccccc2)C1c1ccccn1)OC (centres undefined)
 : 0.73	-0.6	-4	14	i	5	-1.6
> COc1ccccc1N1CCN(c2nc3c(C)cccn3c(=O)c2C=O)CC1
 : 0.74	1.6	-4	5.0	nt	7	0.9
> CCNC(=S)Nc1cccc([N+](=O)[O-])c1
 : 0.72	-0.5	-12	4.1	nt	nt	nt
> O=C(CCSc1ccccc1)NCCSCc1ccco1
 : 0.65	-2.8	nt	0.4	nt	-5	-0.6
> COC(=O)c1nc[nH]c1C(=O)OC
 : 0.69	-3.0	2	2.8	i	-3	-2.8
> Cc1cccc(CNc2ncnc3ccc(-c4ccccc4Cl)cc23)c1
 : 0.72	-2.5	1	0.1	i	5	0.6

Gathered by group, the compounds so far containing a furan ring, fused or not.
The line under a structure holds: E coli growth	LANA-H2B inh	ALR H2O2 inh	UCH37 DUB inh	FGF22 binding	B2AR ag	HNF4A DNA FP
> O=C(/C=C/c1ccco1)NC1=NCCS1
 : 0.65	-8.6	-7	5.7	nt	0	-2.5
> CCOCc1c(C(=O)NC2CCCCCC2)oc2ccccc12
 : 0.69	16	3	1.3	nt	-6	6.0
> Cc1cc(-c2csc(NC(=O)c3cc4ccccc4o3)n2)c(C)n1C
 : 0.74	1.3	6	1.2	nt	8	6.0
> O=C(CCSc1ccccc1)NCCSCc1ccco1
 : 0.65	-2.8	nt	0.4	nt	-5	-0.6

New compounds follow
The line under a structure holds: E coli growth	LANA-H2B inh	ALR H2O2 inh	UCH37 DUB inh	FGF22 binding	B2AR ag	HNF4A DNA FP
> CCn1cc(/C=C/C(=O)NCc2c(C)nn(C)c2C)cn1
 : 0.68	0.3	-25	-3.4	nt	-4	5.9
> O=C(CN1CCN(S(=O)(=O)c2ccc(Br)cc2)CC1)N/N=C/c1ccc(Cl)c([N+](=O)[O-])c1
 : nt	-6.2	-3	nt	i	9	-4.2
> Cc1ccsc1C(=O)OCC(=O)NC1CCCC(C)C1C (centres undefined)
 : 0.67	5.8	1	4.7	i	-11	2.5
> CC(Oc1ccc2ccccc2c1)C(=O)NNC(=S)NC(=O)c1ccco1 (centres undefined)
 : 0.77	-4.5	44	2.5	nt	-2	-1.3
> COc1ccc(/C=N/Nc2ncnc3sc(C)c(C)c23)cc1
 : nt	3.5	41	nt	nt	2	4.1
> COc1c(-c2ccc([N+](=O)[O-])cc2[N+](=O)[O-])c(=O)n(C)c(=O)n1C
 : 0.67	3.9	-13	7.2	i	2	-1.8
> CCCN=C1CC(C)(C)CC(=O)/C1=C(/O)CCC
 : nt	-0.4	16	nt	i	-12	0.9
> COC(=O)Cn1c(=NC(=O)c2ccc(S(=O)(=O)N3CCOCC3)cc2)sc2cc(S(N)(=O)=O)ccc21
 : 0.66	0.4	-8	-37	i	8	1.2
> COc1ccc(CNc2ccc(Br)cc2)cc1
 : 0.63	-8.2	98*	0.5	i	4	-2.8
> O=C(COC(=O)Cc1ccc(F)cc1)NC1CCCCCC1
 : 0.69	nt	nt	2.2	i	-3	1.7
> Cc1ccc(-c2noc(C3CCCN(C(=O)c4ccccc4)C3)n2)o1 (centres undefined)
 : 0.7	1.4	12	5.7	nt	5	-0.6
> CCN(CC)CCn1c2c(c(SCC(=O)Nc3cccc4ccccc34)nc1=O)CCC2
 : 0.62	10	97*	4.1	i	-8	2.3
> C=CCN1C(=O)[C@@H]2Cc3c([nH]c4ccccc34)C(c3ccc(O)cc3)N2C1=S (some centres undefined)
 : 0.067*	-6.6	nt	4.0	nt	-195	46*
> COC(=O)C1=C(C(=O)OC)[C@@H]2N(C)c3ccccc3[C@@]23C[C@@H](CO)N=C3N1
 : nt	7.1	59	-1.3	nt	nt	nt

Screening data from PubChem.
